Screening data from PubChem.
RanGTP-Impb inh: inhibitors of RanGTP-importin-beta interaction, primary screen, biochemical, FRET, CFP-Ran, YFP-importin-beta, homogeneous; cell-free CFP-Ran/YFP-importin-beta FRET ratio; inhibition, % (test concentration not listed); actives 1.1% (n = 300,000);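 active means most replicates above 15%; inconclusive means exactly half above 15%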;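 further: 0% = DMSO wells and 100% = Ran loaded with GDP instead of GTP; wells of about 40 µL received 100 nL stock; the first replicate is given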
HNF4A DNA FP: change in binding of human HNF4 alpha to DNA. HNF4a-FITC DNA binding, fluorescence polarization, 1 h. actives 0.3% (n = 360,000). activity change, % at 10 µM. P41235; in the data active means activity change above about 30%, passing the limit was not always enough;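 further: controls were the assay level and a saturating level of protein; the project sought stronger binding though the title names inhibitors; some compounds called inactive have numbers as strong as hits; positive values seem to mean higher polarization but the record does not say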
Target sequence (P41235 whole entry, looked up): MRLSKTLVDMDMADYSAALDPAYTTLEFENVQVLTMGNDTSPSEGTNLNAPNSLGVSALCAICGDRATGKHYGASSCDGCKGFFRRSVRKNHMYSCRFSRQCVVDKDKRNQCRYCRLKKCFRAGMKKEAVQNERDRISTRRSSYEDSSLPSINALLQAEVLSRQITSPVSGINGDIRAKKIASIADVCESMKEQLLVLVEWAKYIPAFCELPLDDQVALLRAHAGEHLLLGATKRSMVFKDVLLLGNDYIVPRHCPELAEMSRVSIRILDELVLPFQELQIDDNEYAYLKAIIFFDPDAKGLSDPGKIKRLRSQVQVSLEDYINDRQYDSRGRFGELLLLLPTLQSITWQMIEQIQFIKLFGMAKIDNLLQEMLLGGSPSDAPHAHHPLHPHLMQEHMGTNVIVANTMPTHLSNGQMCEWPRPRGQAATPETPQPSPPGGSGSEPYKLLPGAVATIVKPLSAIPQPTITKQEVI
Vif TR-FRET: HIV-1 Vif–A3G interaction blockers – biochemical, TR-FRET, GST-Vif 1-94, biotin-A3G peptide, dose response retest, primary screen (AID 1117319); TR-FRET GST-Vif / biotin-A3G peptide binding; higher % means a stronger effect; test concentration not given here; strong numbers were not always called active; one-dose inhibition, %; IC50 in µM for titrated hits; actives 0.57% (n = 260,000);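 active means above the screen mean plus three standard deviations and confirmed in dose response; inconclusive means results disagree or hit not tested in dose response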;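 further: Vif residues 1-94 fused to GST binding biotinylated APOBEC3G peptide 110-148; 0% = full assay without inhibitor and 100% = GST in place of GST-Vif; retest series ran down from 100 µM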
Calb FLC: C. albicans growth modulation with fluconazole; C. albicans CaCi-2 (fluconazole-resistant clinical isolate) + fluconazole, Alamar Blue growth, 48 h; growth inhibition, % (test concentration not listed); actives 0.57% (n = 300,000); AID 1979;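 active means most replicates above 75%; inconclusive means exactly half above 75%; inactive means most below 75%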;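 further: all wells also contain fluconazole at 8 µg/ml as a sub-toxic cotreatment; 0% = median of DMSO wells and 100% = median of geldanamycin control wells; wells of about 8 µL received 7.5 nL stock; the first replicate is given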
Beta2AR agonist: human beta-2 adrenergic receptor agonism by FAP; response, % (no concentration beside the values); actives 0.43% (n = 340,000); P07550; Am2.2-beta2AR cells, FAP receptor internalization, flow cytometry; reference of the scale not given here;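 active means response above a set limit, near 3 SD of response in nonfluorescent compounds, cut at about 42% in these data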;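 further: stock transfer was 100 nL into about 11 µL; a reference agonist was the positive control; negative values mostly stem from fluorescent compounds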
Target sequence (P07550 whole entry, looked up): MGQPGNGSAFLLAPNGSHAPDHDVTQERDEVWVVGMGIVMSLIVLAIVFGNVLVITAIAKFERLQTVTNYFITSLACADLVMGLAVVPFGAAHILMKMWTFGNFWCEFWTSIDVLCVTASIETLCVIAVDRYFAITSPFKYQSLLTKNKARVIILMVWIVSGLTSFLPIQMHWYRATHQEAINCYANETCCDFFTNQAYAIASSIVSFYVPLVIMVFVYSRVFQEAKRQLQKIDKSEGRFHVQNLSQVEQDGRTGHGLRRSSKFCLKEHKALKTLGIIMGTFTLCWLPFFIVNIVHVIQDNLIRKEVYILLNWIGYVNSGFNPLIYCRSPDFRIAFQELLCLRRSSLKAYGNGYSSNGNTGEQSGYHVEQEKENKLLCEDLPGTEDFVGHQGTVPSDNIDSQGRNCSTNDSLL
LANA-H2B inh: blocks KSHV LANA binding to histone H2A/H2B; AID 2629; inhibition, % (test concentration not listed); actives 0.6% (n = 320,000); cell-free LANA-H2A/H2B peptide, fluorescence polarization; Q9QR71; in the data active means inhibition mostly above about 10%, no sharp cut-off; inactive means mostly below about 6.7%;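 further: stock transfer was 7.5 nL into about 10 µL; 0% = median of vehicle wells and 100% = median of positive control wells; one replicate is shown; the record names a cut of 25% in any replicate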
ALR H2O2 inh: inhibitors of human sulfhydryl oxidase ALR. actives 3.8% (n = 290,000). inhibition, % (no concentration beside the values). purified ALR, DTT oxidation, H2O2 HRP-luminol luminescence. P55789;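 active means mean and each replicate at 75% or more; inconclusive means only one of the two met; inactive means neither met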;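 further: stock transfer was 7.5 nL into about 7.5 µL; 0% = neutral wells and 100% = wells with inactivated enzyme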
Target sequence (P55789 whole entry, looked up): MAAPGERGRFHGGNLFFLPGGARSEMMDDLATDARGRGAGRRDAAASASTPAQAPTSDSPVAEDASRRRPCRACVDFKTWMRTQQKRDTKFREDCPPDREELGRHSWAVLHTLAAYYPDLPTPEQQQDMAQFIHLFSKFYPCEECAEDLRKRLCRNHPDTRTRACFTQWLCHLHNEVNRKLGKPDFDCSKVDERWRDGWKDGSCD
Starred values were filed as active, the others as inactive; ? = inconclusive; · = not tested or not shown.

Keys – A = RanGTP-Impb inh; B = HNF4A DNA FP; C = Vif TR-FRET; D = Calb FLC; E = Beta2AR agonist; F = LANA-H2B inh; G = ALR H2O2 inh
CN1C(=O)C(CC(=O)Nc2ccccc2F)N(NC(=O)c2ccc(Br)cc2)C1=S (stereo not given)
  A: 3.4	B: -3.2	C: ·	D: -14	E: 3	F: 1.8	G: ·
Cc1ccc(N2CC(C(=O)Nc3nnc(SCCN4CCOCC4)s3)CC2=O)cc1C (stereo not given)
  A: 0.1	B: 4.0	C: ·	D: 7	E: -10	F: 1.6	G: 20
CCn1c(=NC(=O)CSC(C)=O)sc2cc(OC)ccc21
  A: 1.1	B: 2.6	C: -1%	D: 2	E: 16	F: 5.9	G: 52
CC1CCC(NCc2ccco2)CC1 (stereo not given)
  A: ?	B: 0.0	C: -4%	D: -40	E: 10	F: 3.3	G: -4
COc1ccc(C(=O)COC(=O)c2cc(=O)c3ccccc3o2)cc1
  A: ·	B: -2.8	C: -1%	D: ·	E: 0	F: 4.3	G: -1
Cc1ccc(S(=O)(=O)N/N=C2/CC(=O)CC(C)(C)C2)cc1[N+](=O)[O-]
  A: -5.9	B: 1.4	C: 10%	D: 3	E: 1	F: 1.9	G: 8
CCN(CC)S(=O)(=O)c1ccc(Oc2ccccc2)cc1
  A: 6.0	B: -2.5	C: ?	D: -43	E: -10	F: ·	G: ·
CC(=O)N=c1sc(C(C)(C)C)c(C)n1C
  A: 4.3	B: 3.4	C: 1%	D: 5	E: -1	F: -2.6	G: -5
O=C1N(Cc2ccccc2F)c2ccccc2C12OCCCO2
  A: 2.2	B: 1.4	C: -2%	D: 22	E: 4	F: -4.6	G: -14
NS(=O)(=O)c1ccc(NC(=O)C2COc3ccccc3O2)cc1 (stereo not given)
  A: -1.0	B: ·	C: 1%	D: 5	E: ·	F: 4.7	G: ·
Cc1ccc([C@@H]2[C@@H]3C(=O)N(C)C(=O)[C@@H]3[C@]3(C)C(=O)N(Cc4ccccc4)CC(=O)N23)o1
  A: -2.9	B: 4.5	C: ·	D: 1	E: 1	F: 2.5	G: ·
Cc1ccc(C)n1-c1cccc(N)c1
  A: 6.5	B: ·	C: 0%	D: -1	E: ·	F: 0.0	G: -8
Cc1ccnc(NC(=O)CCNC(=O)c2ccc(Cl)cc2)c1
  A: -3.1	B: 2.6	C: -6%	D: -4	E: 0	F: 3.1	G: -12
CSCCC(NC(=O)c1cc(S(=O)(=O)N2CCOCC2)ccc1F)c1nc2ccccc2[nH]1 (stereo not given)
  A: ·	B: -0.1	C: 4%	D: ·	E: -6	F: ·	G: -4
O=C(/C=C/c1ccccc1)N/C(=C\c1ccco1)C(=O)O
  A: 0.7	B: 1.2	C: 26%	D: 10	E: 0	F: -1.1	G: -1
COC(=O)c1nnn(CC(=O)NC(=O)Nc2cccc(C)c2C)c1C(=O)OC
  A: -2.4	B: -2.1	C: 7%	D: 9	E: 6	F: 2.8	G: -3
CNC(=O)CC12CC3CC(CC(C3)C1)C2
  A: 2.8	B: -3.4	C: 6%	D: -11	E: -9	F: -1.1	G: -2
COc1ccc(S(=O)(=O)N2CCCCCC2)cc1C(=O)N(CC(C)C)C1CCS(=O)(=O)C1 (stereo not given)
  A: -15	B: -4.8	C: 1%	D: 5	E: 0	F: 0.1	G: -5
Cc1ccsc1/C=N/N1CCOCC1
  A: ?	B: -0.8	C: -2%	D: -3	E: -2	F: 6.7	G: -4
Cc1ccc(S(=O)(=O)Nc2nc3ccccc3s2)cc1[N+](=O)[O-]
  A: -1.1	B: 1.3	C: ·	D: 22	E: 19	F: -12	G: 0
COC(=O)[C@]1(Cc2ccccc2)N[C@H](c2ccc(-c3cccc(Cl)c3)cc2)[C@@H]2C(=O)N(C)C(=O)[C@@H]21
  A: -0.9	B: 2.8	C: ·	D: -3	E: 1	F: 4.0	G: 3
Oc1cccc2ccc(/C=C/c3c(F)cccc3Cl)nc12
  A: 4.8	B: -1.5	C: -4%	D: 19	E: -3	F: 0.9	G: -7
CN(C)CCNC(C(=O)Nc1cccc(S(=O)(=O)N2CCOCC2)c1)c1ccccc1 (stereo not given)
  A: ·	B: 0.6	C: 0%	D: ·	E: -1	F: 0.7	G: -4
COc1ccc(-c2cc3nnc(-c4ccccc4)nc3s2)cc1
  A: 1.5	B: -0.2	C: ·	D: -8	E: 5	F: 3.0	G: 94*
COc1ccc(CN2C(=O)c3cccnc3C2=O)cc1S(=O)(=O)N1CCOc2ccccc21
  A: 5.9	B: 3.5	C: 6%	D: -4	E: 1	F: 6.2	G: -4
Cc1nn(-c2ccccc2)c(C)c1/C=N/NC(=O)c1cc(O)cc(O)c1
  A: 6.4	B: 1.0	C: -3%	D: 10	E: 0	F: -1.7	G: 29
N#CC(c1nc2ccccc2nc1N1CCCC1)S(=O)(=O)c1cccs1 (stereo not given)
  A: 0.1	B: 14	C: 21%	D: 25	E: -26	F: 5.6	G: 30
Cc1nnc(NC(=O)C2CC(=O)N(c3ccccc3)C2)s1 (stereo not given)
  A: 1.7	B: -1.5	C: ·	D: -2	E: -7	F: -4.5	G: 2
COc1ccc(/C=N/NC(=O)c2ccc(Cn3cc([N+](=O)[O-])cn3)o2)c(OC)c1C
  A: -0.7	B: -1.0	C: 0%	D: -2	E: -1	F: 3.1	G: -5
COc1ccc2oc(C(=O)NCC(c3ccco3)N(C)C)c(C)c2c1 (stereo not given)
  A: -2.1	B: -1.1	C: 6%	D: ·	E: -1	F: -0.8	G: -18
CCOC(=O)c1ccc(N2C(=O)CC(SCC(=O)Nc3ccc(S(N)(=O)=O)cc3)C2=O)cc1 (stereo not given)
  A: 5.7	B: 1.4	C: -1%	D: -19	E: 6	F: 0.6	G: 99*
COCCCN1CC(=O)N2C(c3cccc(C)c3)c3[nH]c4ccccc4c3C[C@H]2C1=O (stereo not given in full)
  A: -2.4	B: 0.9	C: 13%	D: -6	E: 2	F: -1.8	G: -5
N#Cc1ccc2ccn(CC(=O)NCc3ccco3)c2c1
  A: -0.4	B: 0.9	C: -9%	D: -6	E: 8	F: 4.4	G: -18
CCOC(=O)/C(C#N)=C/c1c(N2CCN(CC)CC2)nc2c(C)cccn2c1=O
  A: 99*	B: -3.0	C: 1%	D: -3	E: 2	F: -2.0	G: -3
Cc1ccc(NC(=O)c2ccccc2-c2ccccc2C(=O)O)cc1C
  A: 3.9	B: -0.7	C: 0%	D: -11	E: -10	F: -7.9	G: -1
CC[C@]1(C(=O)OC)[C@H]2C(=O)N(Cc3ccccc3)C(=O)[C@H]2[C@H]2CN(C)C(=NC)N21
  A: ·	B: 2.1	C: 1%	D: ·	E: 2	F: ·	G: ·
CC1(C(=O)Nc2ccc3ccccc3c2)CC1(Br)Br (stereo not given)
  A: -0.5	B: 1.1	C: -7%	D: 25	E: -6	F: -1.7	G: -16
Cc1cc(Cl)c(OCCCN2CCCCC2)c(Br)c1
  A: 1.9	B: -3.3	C: -4%	D: -25	E: -8	F: -3.9	G: -5
O=C1Nc2ccc(S(=O)(=O)NCc3ccco3)c3cccc1c23
  A: 3.4	B: -7.2	C: ·	D: 41	E: 13	F: 7.2	G: -4
CN(CCOc1ccc(Cl)cc1)c1ccc(S(=O)(=O)N2CCCCC2)cn1
  A: ·	B: 3.7	C: 4%	D: ·	E: 2	F: 0.2	G: -3
O=C(CNS(=O)(=O)c1ccc([N+](=O)[O-])cc1)N/N=C/c1ccc(O)cc1O
  A: 2.5	B: 3.1	C: 13%	D: 19	E: -1	F: -1.6	G: 51
Cc1cc(C)cc(NC(=O)CSc2nc3nc(C)cc(C)n3n2)c1
  A: ·	B: -5.1	C: -4%	D: ·	E: -7	F: -1.0	G: -4
COc1ccc(CC(=O)OCC(=O)NC2CCCC(C)C2C)cc1 (stereo not given)
  A: ·	B: 1.6	C: -9%	D: ·	E: -7	F: -1.8	G: 1
Cc1ccc(N(C(C)C(=O)N2CCN(Cc3ccccc3)CC2)S(C)(=O)=O)cc1 (stereo not given)
  A: -3.7	B: 7.3	C: ·	D: -1	E: 3	F: 1.8	G: -12
Cc1cccc(OCCn2cnc(Cl)c2Cl)c1
  A: -2.6	B: 1.2	C: -5%	D: -9	E: -1	F: -2.8	G: ·
COc1cccc(C2(c3cccc(OC)c3)CC2C(=O)Nc2ccccc2Cl)c1 (stereo not given)
  A: -1.7	B: -2.5	C: ·	D: 5	E: 5	F: -3.1	G: -4
COCCNC(=O)[C@@H]1CSC2c3ccc(OC)c(OC)c3C(=O)N21 (stereo not given in full)
  A: -1.0	B: 0.9	C: 2%	D: 3	E: 7	F: 1.0	G: -1
COCCNC(=O)C(C)Oc1ccccc1 (stereo not given)
  A: -0.4	B: 1.1	C: -2%	D: -5	E: 4	F: 2.0	G: ·
Cc1ccc(NC2=NC3(CCCC3)N=C(N)N2)c(C)c1
  A: -5.6	B: -1.8	C: 2%	D: -12	E: 13	F: -5.6	G: -2
COC(=O)c1ccccc1-n1cccc1C(=O)NP(=O)(N1CCOCC1)N1CCOCC1
  A: -0.5	B: -4.1	C: -9%	D: -12	E: 3	F: 0.9	G: -2

The list continues.
Keys – A = RanGTP-Impb inh; B = HNF4A DNA FP; C = Vif TR-FRET; D = Calb FLC; E = Beta2AR agonist; F = LANA-H2B inh; G = ALR H2O2 inh
c1ccc(CNc2nc(N3CCOCC3)nc(N3CCOCC3)n2)cc1
  A: 0.8	B: 3.0	C: 0%	D: -20	E: -4	F: -4.1	G: -1
CCc1ccc(N(CC(=O)NC(C)(C)CC)C(=O)CCC(=O)Nc2nccs2)cc1
  A: 0.0	B: 1.9	C: ·	D: -4	E: 4	F: 1.7	G: -4
CC1=NN(/C(=N\c2nnc(C)s2)Nc2ccccc2)[C@H](c2cccc3ccccc23)S1
  A: ?	B: -0.8	C: 0%	D: ?	E: 3	F: 1.0	G: ·
COc1ccccc1NC(=O)COC(=O)c1cnccn1
  A: 5.5	B: 1.0	C: -5%	D: -6	E: -2	F: 4.1	G: -4
COc1cc(OC)cc(-c2c(-c3cccs3)c3cc(-c4ccc(OCc5ccccc5)cc4)ccc3n2C)c1
  A: ·	B: 17	C: ·	D: ·	E: -5	F: -2.5	G: 0
COc1ccc(CCNC(=O)/C=C/c2ccc3ccccc3n2)cc1OC
  A: -0.6	B: 1.1	C: ·	D: -3	E: 7	F: -1.7	G: 43
CON/C=N/C(=S)Nc1ncc(C(F)(F)F)cc1Cl
  A: -3.8	B: 0.0	C: -4%	D: 5	E: 2	F: -0.9	G: 0
CC(=O)c1cccc(NC(=S)NC2CCCCC2)c1
  A: 5.1	B: -1.4	C: 1%	D: -3	E: -5	F: -1.2	G: ?
Cc1ccc(C(=O)N2CCN(c3ccccc3)CC2)cc1S(=O)(=O)N1CCCC1
  A: 5.9	B: -1.0	C: 2%	D: ·	E: -7	F: 1.6	G: 26
O=C(Nc1ccc2nc3n(c(=O)c2c1)CCCC3)c1cccc([N+](=O)[O-])c1
  A: 0.1	B: -5.4	C: ·	D: -12	E: -12	F: ·	G: ·

Ordered by length of the SMILES (falling): part of the list above
Keys – A = RanGTP-Impb inh; B = HNF4A DNA FP; C = Vif TR-FRET; D = Calb FLC; E = Beta2AR agonist; F = LANA-H2B inh; G = ALR H2O2 inh
COc1cc(OC)cc(-c2c(-c3cccs3)c3cc(-c4ccc(OCc5ccccc5)cc4)ccc3n2C)c1
  A: ·	B: 17	C: ·	D: ·	E: -5	F: -2.5	G: 0
CC1=NN(/C(=N\c2nnc(C)s2)Nc2ccccc2)[C@H](c2cccc3ccccc23)S1
  A: ?	B: -0.8	C: 0%	D: ?	E: 3	F: 1.0	G: ·
Cc1ccc(C(=O)N2CCN(c3ccccc3)CC2)cc1S(=O)(=O)N1CCCC1
  A: 5.9	B: -1.0	C: 2%	D: ·	E: -7	F: 1.6	G: 26
CC(=O)c1cccc(NC(=S)NC2CCCCC2)c1
  A: 5.1	B: -1.4	C: 1%	D: -3	E: -5	F: -1.2	G: ?
